Mtb betalactam – beta-lactam sensitization of Mtb H37Rv; M. tuberculosis H37Rv growth with meropenem, percent inhibition; hits of this screen are not shown here; inhibition, % at 25 µM; hit rate 0.27% among 330,000; AID 434955;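 active means about 74% or more and at least 40 points above the plate without the antibiotic, then above 30% in a dose series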;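 further: growth measured after seven days incubation then overnight dye step; 0% = bacteria only wells and 100% = bacteria with antibiotic; twin plates without the antibiotic show which effects depend on it; some results filed as inactive read as strong as hits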
Numbers without * were called inactive.

How did CCN1C(N(C)CCc2c[nH]c3ccccc23)=N[C@@H](c2cccc(C(F)(F)F)c2)C(C(=O)OC)=C1C do in these assays?
Mtb betalactam: 100

Results for COc1ccc(NC(=O)N(C)C[C@H]2Oc3ccc(NC(=O)NC(C)C)cc3C(=O)N([C@H](C)CO)C[C@@H]2C)cc1 ?
Mtb betalactam: -6

How did Nc1nc(-c2ccc(S(=O)(=O)N3CCCCC3)cc2)cs1 do in these assays?
Mtb betalactam: 1

What do the screens show for `CC(C)(C)OC(=O)C[C@H]1C/C=C\C[C@H](CC(=O)N(CCO)Cc2ccccc2)C(=O)N[C@H](C(C)(C)C)COC1=O`?
Mtb betalactam: -7

How did CCN(C[C@H]1N[C@@](C)(C(=O)OC)[C@H]2C(=O)N(C)C(=O)[C@@H]12)S(=O)(=O)c1ccc(OC)cc1 do in these assays?
Mtb betalactam: 4

How did CN(C(=O)COC(=O)C12CC3CC(CC(Cl)(C3)C1)C2)c1ccccc1 do in these assays?
Mtb betalactam: -1

Results for CN(CC(=O)Nc1ccccc1C(=O)NC1CC1)Cc1ccco1 ?
Mtb betalactam: 2

What do the screens show for `CCOc1ccc(CCNC(=O)CCC(=O)c2cccs2)cc1OCC`?
Mtb betalactam: -3

How did COc1ccc(NS(=O)(=O)c2cc(NC(=O)c3ccc(=O)[nH]c3)ccc2C)cc1 do in these assays?
Mtb betalactam: -4

How did COc1cc(C(=O)N2CCN(c3ccccc3O)CC2)ccc1OCC(=O)N1CCOCC1 do in these assays?
Mtb betalactam: -5

What do the screens show for `Cc1cnc(C(=O)OCC(=O)Nc2cc(Cl)ccc2C#N)cn1`?
Mtb betalactam: -6

Results for Cc1ccc(S(=O)(=O)CCC(=O)OCC(=O)NC(C)c2ccccc2)cc1 (centres undefined) ?
Mtb betalactam: -9

How did CCCc1c(OCCCOc2ccc(OCC(=O)O)cc2)ccc(C(C)=O)c1O do in these assays?
Mtb betalactam: 2

What do the screens show for `CCOC(=O)C1(Cc2ccccc2C)CCCN(C(=O)c2sccc2C)C1` (centres undefined)?
Mtb betalactam: -8

How did COC(=O)C1=C(c2cccc(C#N)c2)C[C@@H]2CC[C@H]1N2C(=O)NCC1CC1 do in these assays?
Mtb betalactam: -3

How did O=C(Nn1cnnc1)c1cc(Br)ccc1Cl do in these assays?
Mtb betalactam: -2

Results for O=C1NC[C@@H](c2ccccc2)OC(=O)[C@H](Cc2ccc(F)cc2)C/C=C\C[C@@H]1CC(=O)N(CCO)Cc1ccccc1 ?
Mtb betalactam: 4

How did CCOc1ccc(NC(=O)C(C)NC(=O)c2ccccc2Cl)cc1S(=O)(=O)N1CCCC1 (centres undefined) do in these assays?
Mtb betalactam: 5

Results for O=[N+]([O-])c1cccc(CCl)c1 ?
Mtb betalactam: 55

How did Cc1cccc(C(=O)OCC(=O)Nc2ccccc2C(=O)NC2CC2)c1 do in these assays?
Mtb betalactam: -6

What do the screens show for `O=C(NCc1ccccc1CN1CCCC1)c1cccc(S(=O)(=O)N2CCOCC2)c1`?
Mtb betalactam: -1

How did COC(=O)C1=C(C)NC(=S)NC1c1ccc(OCC(=O)N2CC(C)OC(C)C2)c(OC)c1 (centres undefined) do in these assays?
Mtb betalactam: 4

How did C#CCOCCOCCOCCNc1nc(N2CCN(C(=O)[C@H](CCCCN)n3cc(CN)nn3)CC2)nc(N2CCN(C(=O)[C@H](CCC(=O)O)n3cc([C@@H](N)CCSC)nn3)CC2)n1 do in these assays?
Mtb betalactam: 7

Results for Cc1cc(NC(=O)COC(=O)c2ccc([N+](=O)[O-])cc2Cl)no1 ?
Mtb betalactam: -10

How did CCCCCCN[C@H]1CCC2C3CC=C4C[C@@H](O)CC[C@]4(C)C3CC[C@@]21C (some centres undefined) do in these assays?
Mtb betalactam: 68

What do the screens show for `O=C(CN1C(=O)NC2(CCCCCC2)C1=O)Nc1ccc(Cl)c([N+](=O)[O-])c1`?
Mtb betalactam: 3

How did CCN1CCN(S(=O)(=O)c2ccc(Cl)c(C(=O)NC3CC3)c2)CC1 do in these assays?
Mtb betalactam: 0

How did O=C(c1ccccc1)c1ccc(-n2ccnc2)c([N+](=O)[O-])c1 do in these assays?
Mtb betalactam: -7

How did CCC(=O)c1ccc(OCC(=O)N2CCN(S(=O)(=O)c3ccc(Cl)s3)CC2)cc1 do in these assays?
Mtb betalactam: -9

Results for CC1CCCN(C(=O)C2CCN(S(=O)(=O)c3cccc4nonc34)CC2)C1 (centres undefined) ?
Mtb betalactam: -6

Results for CC1(c2ccccc2)ON(c2ccccc2C(F)(F)F)C1=O (centres undefined) ?
Mtb betalactam: 7

What do the screens show for `CC(C)(C)OC(=O)N[C@H](/C=C/c1ccccc1)C(=O)OC(C)(C)C`?
Mtb betalactam: 7

Results for COc1cc(NC(=O)CN2C(=O)C(=O)N(C3CCCC3)C2=O)cc(OC)c1 ?
Mtb betalactam: 0

How did N#Cc1cnn(-c2ccccc2)c1NC(=O)c1ccccc1F do in these assays?
Mtb betalactam: 1

Results for COc1ccc(Cl)cc1NC(=O)CN(C)CC(=O)NCc1cccs1 ?
Mtb betalactam: -8

What do the screens show for `O=C(Nc1ccccc1Cl)c1ccc2c(=O)n3c(nc2c1)CCC3`?
Mtb betalactam: -4

Results for CC(C)NC(=O)Nc1cccc2c1O[C@H](CN(C)C(=O)Nc1ccc(C(F)(F)F)cc1)[C@@H](C)CN([C@H](C)CO)C2=O ?
Mtb betalactam: 8

What do the screens show for `O=C(Nc1ccccn1)c1cc(-c2ccc(Cl)s2)nc2ccccc12`?
Mtb betalactam: 1

How did CCOC(=O)[C@H]1[C@H]2COc3ccc(Br)cc3[C@@H]2N2C(=O)N(c3ccccc3)C(=O)[C@@]12C do in these assays?
Mtb betalactam: -2

How did COc1ccc(CCC(=O)OCC(=O)Nc2c(C)n(C)n(-c3ccccc3)c2=O)cc1 do in these assays?
Mtb betalactam: -1

Results for CC(C)CCN(C(=O)c1ccc(N2CCCC2=O)cc1)c1c(N)n(Cc2ccccc2)c(=O)[nH]c1=O ?
Mtb betalactam: 0

What do the screens show for `COc1cc(C)ccc1OCC(=O)OCC(=O)c1cc(C)n(CC2CCCO2)c1C` (centres undefined)?
Mtb betalactam: 22

Results for Cc1ccc(C(=O)NCC(=O)OC(C)C(=O)Nc2ccccc2[N+](=O)[O-])s1 (centres undefined) ?
Mtb betalactam: 3

What do the screens show for `Cc1cc(C(=O)COc2ccc(Br)cc2F)c(C)n1C1CC1`?
Mtb betalactam: 2

How did CS(=O)(=O)c1ccc(NC(=O)C2CCCN(C(=O)c3ccc(Cl)cc3)C2)cc1 (centres undefined) do in these assays?
Mtb betalactam: 0

Results for C[C@H]1CN([C@@H](C)CO)C(=O)c2cccc(NC(=O)C3CC3)c2O[C@H]1CN(C)S(=O)(=O)c1ccccc1 ?
Mtb betalactam: -1

Results for CCN(C(=O)COC(=O)c1nccnc1N)c1cccc2ccccc12 ?
Mtb betalactam: 2

How did COc1ccc(-c2cn(CCO)c(CCN)n2)cc1 do in these assays?
Mtb betalactam: -5

What do the screens show for `O=C(COC(=O)CN1C(=O)c2ccccc2C1=O)Nc1cccc(F)c1`?
Mtb betalactam: 2

What do the screens show for `COc1ccccc1NS(=O)(=O)c1cc(C(=O)N2CCCCCC2)ccc1C`?
Mtb betalactam: 0

How did O=C1OC[C@H]2CCCN2C(=O)[C@@H](CC(=O)N(CCO)Cc2ccccc2)C/C=C\CC[C@@H]1Cc1ccc(F)cc1 do in these assays?
Mtb betalactam: -3

How did Cc1ccc(N(CC(=O)NC2CCCC2)C(=O)CCC(=O)Nc2ccccn2)cc1 do in these assays?
Mtb betalactam: -5

How did COc1ccc(N(CC(=O)NCCSc2ccccn2)S(=O)(=O)c2ccccc2)cc1OC do in these assays?
Mtb betalactam: -8

How did COc1ccc(C(=O)OCC(=O)c2c[nH]c3ccccc23)cc1OC do in these assays?
Mtb betalactam: 0

How did COc1ccc(-c2cc(C(=O)OCC(=O)NC3CC3)c3ccccc3n2)cc1 do in these assays?
Mtb betalactam: 64

Results for O=[N+]([O-])c1ccccc1S(=O)(=O)N/C(=N/S(=O)(=O)c1ccccc1)c1ccccc1 ?
Mtb betalactam: -4

What do the screens show for `Cc1cc(Cl)ccc1NC(=O)CN(C)C1=NS(=O)(=O)c2ccccc21`?
Mtb betalactam: -5

What do the screens show for `Cc1cc(C)cc(C(=O)NCC(=O)OCN2C(=O)c3ccccc3C2=O)c1`?
Mtb betalactam: -1

How did CCN(c1ccccc1)S(=O)(=O)c1ccc(OC)c(NC(=O)Cc2ccc(OC)c(OC)c2)c1 do in these assays?
Mtb betalactam: -3

What do the screens show for `COC(=O)[C@]1(C)N[C@H](CN(C)C(=O)NC(C)C)[C@@H]2C(=O)N(C)C(=O)[C@@H]21`?
Mtb betalactam: -1

Results for CC(Oc1cccc(Br)c1)C(=O)Nc1cccc(S(=O)(=O)N2CCOCC2)c1 (centres undefined) ?
Mtb betalactam: 2

Results for COc1cc(O)c2c(=O)c3c(O)ccc(O)c3oc2c1 ?
Mtb betalactam: 0

How did COc1cccc(NC(=O)COC(=O)c2c(C)nn(-c3ccccc3)c2C)c1 do in these assays?
Mtb betalactam: -7

How did O=C(COC(=O)c1ccccc1O)NCc1ccco1 do in these assays?
Mtb betalactam: 0

What do the screens show for `O=CC(=O)c1ccccc1`?
Mtb betalactam: -2

What do the screens show for `COc1ccc(C(=O)COC(=O)c2sc(C)nc2C)cc1F`?
Mtb betalactam: 5

Results for Cc1cc2c(c(C)c1CCO[C@@H]1O[C@H](CO)[C@@H](O)[C@H](O)[C@H]1O)C(=O)[C@@H](C)[C@@H]2O ?
Mtb betalactam: -1

Results for Cc1nc(SCc2nc3ccccc3[nH]2)c2oc3cc(Br)ccc3c2n1 ?
Mtb betalactam: 1

What do the screens show for `CCOC(=O)N1CCC(NCCNC(=O)c2ccc(F)c(F)c2)CC1`?
Mtb betalactam: -2

What do the screens show for `COc1ccc(C(=O)N2CCN(c3ccccc3Cl)CC2)cc1S(=O)(=O)NC1CC1`?
Mtb betalactam: -2

What do the screens show for `O=C(CN(Cc1ccco1)Cc1cccs1)N1CCN(S(=O)(=O)c2cccc(F)c2)CC1`?
Mtb betalactam: 8

What do the screens show for `Cc1ccc(S(=O)(=O)NC2CCSC2=O)cc1C` (centres undefined)?
Mtb betalactam: -12

How did N#CCCN(C(=O)COC(=O)c1ccc2c(c1)OCCO2)c1ccccc1 do in these assays?
Mtb betalactam: -7

Results for CN(C)S(=O)(=O)c1cccc(NC(=O)C2CCN(S(=O)(=O)c3cccs3)CC2)c1 ?
Mtb betalactam: -11

What do the screens show for `O=C(CNS(=O)(=O)c1ccc(Cl)c(C(F)(F)F)c1)NC1CCCCCC1`?
Mtb betalactam: -3

Results for COc1ccc(NS(=O)(=O)c2cc(NC(=O)c3ccccc3)ccc2N2CCOCC2)cc1 ?
Mtb betalactam: 2

What do the screens show for `CC1(C)CC(=O)C=C(c2ccc(Oc3ccccc3)cc2)C1`?
Mtb betalactam: 9

What do the screens show for `O=C(CCNC(=O)c1ccc([N+](=O)[O-])cc1)Nc1cccc(S(=O)(=O)N2CCOCC2)c1`?
Mtb betalactam: 0

Results for O=C(COC(=O)c1cccnc1Cl)c1ccc(Cl)s1 ?
Mtb betalactam: 6

How did Cc1cccc(NS(=O)(=O)c2cccc(C(=O)N3CCN(C/C=C/c4ccccc4)CC3)c2)c1 do in these assays?
Mtb betalactam: -6

Entries above that have a nitro group on carbon:
Results for O=[N+]([O-])c1cccc(CCl)c1 ?
Mtb betalactam: 55

Results for Cc1cc(NC(=O)COC(=O)c2ccc([N+](=O)[O-])cc2Cl)no1 ?
Mtb betalactam: -10

What do the screens show for `O=C(CN1C(=O)NC2(CCCCCC2)C1=O)Nc1ccc(Cl)c([N+](=O)[O-])c1`?
Mtb betalactam: 3

How did O=C(c1ccccc1)c1ccc(-n2ccnc2)c([N+](=O)[O-])c1 do in these assays?
Mtb betalactam: -7

Results for Cc1ccc(C(=O)NCC(=O)OC(C)C(=O)Nc2ccccc2[N+](=O)[O-])s1 (centres undefined) ?
Mtb betalactam: 3

Results for O=[N+]([O-])c1ccccc1S(=O)(=O)N/C(=N/S(=O)(=O)c1ccccc1)c1ccccc1 ?
Mtb betalactam: -4

What do the screens show for `O=C(CCNC(=O)c1ccc([N+](=O)[O-])cc1)Nc1cccc(S(=O)(=O)N2CCOCC2)c1`?
Mtb betalactam: 0

Following part:
What do the screens show for `O=C(CNC(=O)c1ccc(Br)cc1)NCc1cccnc1`?
Mtb betalactam: 0

Results for O=C(Nc1cccc(Cl)c1)c1nc[nH]c1C(=O)NCCCNC(=O)c1[nH]cnc1C(=O)Nc1cccc(Cl)c1 ?
Mtb betalactam: 1

What do the screens show for `CC[C@@H]1C=C(C(=O)O)[C@H](c2ccc(Cl)cc2)N1S(=O)(=O)c1ccc(C)cc1`?
Mtb betalactam: 2

What do the screens show for `Cc1ccc(S(=O)(=O)Nc2c(C)nc3nc(C)[nH]n3c2=O)c(C)c1`?
Mtb betalactam: 1

Results for CC1CCN(C(=O)c2[nH]cnc2C(=O)N[C@@H](C)c2ccccc2)CC1 ?
Mtb betalactam: -11

How did CCCCN(C(=O)C1CCCO1)c1c(N)n(CCC)c(=O)[nH]c1=O (centres undefined) do in these assays?
Mtb betalactam: -2

How did O=C(CSc1n[nH]c(=O)[nH]c1=O)Nc1ccc(Br)cc1Br do in these assays?
Mtb betalactam: 7

What do the screens show for `COc1ccc2c(c1)c1c(n2C)[C@@H]2CC=C(CO)[C@@H](C1)N2C`?
Mtb betalactam: -5

Results for Cc1cc(C)c(S(=O)(=O)NCc2ccccn2)cc1C ?
Mtb betalactam: -6

What do the screens show for `Cc1ccc2c(c1)-n1c(nc3cc(C)ccc3c1=O)C(Cc1ccccc1)NC2=O` (centres undefined)?
Mtb betalactam: 4

What do the screens show for `O=C(OCc1cc(=O)n2ccsc2n1)C1(c2ccc(Cl)cc2)CC1`?
Mtb betalactam: 34

How did NCCC1CCCC(CCN)N1 (centres undefined) do in these assays?
Mtb betalactam: 1

What do the screens show for `O=C(NC1CCC(O)CC1)c1ccc(Br)o1` (centres undefined)?
Mtb betalactam: -4

Compound activity: PubChem, Southern Research Specialized Biocontainment Screening Center

These rows are one share of the data (hit frequency here may not be typical).
